Source: PubChem BioAssay (several laboratories)
Arbovirus anti: antivirals against arbovirus infection, primary screen, cell-based, full library, 10K replicate subset; arbovirus infection cell-based antiviral screen; inhibition, % at 10 µM; 0.37% of 200,000 active;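 active = inhibition from about 30%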;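 also: bluetongue infection of BSR cells; cell survival read as ATP light after 72 h; 0% = infected wells without compound and 100% = uninfected wells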
Mtb growth: M. tuberculosis H37Rv growth inhibitors, H37Rv strain (AID 1626). inhibition, % at 10 µM, or IC50 in µM where a hit was titrated. M. tuberculosis H37Rv growth inhibition; higher % means a stronger effect. 0.95% of 220,000 active;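 active = confirmed in a dose series; inconclusive = inhibition above 80% but not taken into the dose series; inactive = below 80% or under 30% at every dose of the series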;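 also: bacteria incubated seven days before Alamar blue readout; 0% = bacteria only wells and 100% = bacteria with antibiotic wells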
Mtb betalactam: beta-lactam sensitization of Mtb H37Rv, H37Rv. inhibition, % at 25 µM. 0.27% of 330,000 active. M. tuberculosis H37Rv growth with meropenem, percent inhibition; hits of this screen are not shown here;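 active = about 74% or more and at least 40 points above the plate without the antibiotic, then above 30% in a dose series; inconclusive = first-round hits that could not be retested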;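 also: growth measured after seven days incubation then overnight dye step; 0% = bacteria only wells and 100% = bacteria with antibiotic; twin plates without the antibiotic show which effects depend on it; some results filed as inactive read as strong as hits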
YopH inh: YopH tyrosine phosphatase inhibitors, primary screen, biochemical, fluorescence Ex485/Em525 | inhibition, %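 (about 10 µM by stock and volumes)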 | 0.16% of 140,000 active | YopH tyrosine phosphatase [Yersinia enterocolitica];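 active = inhibition of 50% or more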;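 also: controls were vehicle for no effect and minimum signal wells for full effect; inactives centre near -20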
RecA splice inh: Mtb RecA intein splicing inhibitors, primary screen, biochemical, fluorescence, HTS. inhibition, %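 (about 9 µM by stock and volumes)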. 0.75% of 290,000 active. AID 2221, 2009. cell-free RecA intein splicing; in the data active = inhibition above about 30%; inconclusive = no clear call, values can overlap the other calls;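 also: 0% = vehicle wells and 100% = reference inhibitor control wells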
Target sequence (P9WHJ3 whole entry, looked up, canonical isoform): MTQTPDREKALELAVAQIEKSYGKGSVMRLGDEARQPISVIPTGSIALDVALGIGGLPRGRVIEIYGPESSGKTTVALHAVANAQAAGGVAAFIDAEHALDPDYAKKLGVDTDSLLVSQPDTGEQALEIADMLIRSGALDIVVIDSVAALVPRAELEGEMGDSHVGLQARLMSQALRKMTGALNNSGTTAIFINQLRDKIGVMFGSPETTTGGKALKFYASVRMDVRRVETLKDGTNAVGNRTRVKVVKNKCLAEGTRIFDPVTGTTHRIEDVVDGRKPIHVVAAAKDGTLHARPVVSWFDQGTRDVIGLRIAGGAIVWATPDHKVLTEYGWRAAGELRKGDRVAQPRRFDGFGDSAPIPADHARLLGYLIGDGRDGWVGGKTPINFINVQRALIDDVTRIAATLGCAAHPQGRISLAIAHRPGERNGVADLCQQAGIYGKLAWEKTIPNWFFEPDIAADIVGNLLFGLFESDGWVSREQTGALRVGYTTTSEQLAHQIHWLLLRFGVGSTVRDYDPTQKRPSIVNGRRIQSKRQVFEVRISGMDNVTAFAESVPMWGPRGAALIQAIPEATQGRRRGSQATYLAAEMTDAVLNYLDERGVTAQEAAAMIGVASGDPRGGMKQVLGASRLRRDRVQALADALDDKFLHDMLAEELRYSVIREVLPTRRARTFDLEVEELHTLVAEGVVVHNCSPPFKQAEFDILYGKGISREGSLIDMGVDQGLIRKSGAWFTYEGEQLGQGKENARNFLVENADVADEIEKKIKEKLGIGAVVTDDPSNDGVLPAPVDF
Arbovirus anti repeat: further read-out of Arbovirus anti, marked with its call; inhibition, %; measured here: 10K subset replicate screen; many hits read low in the repeat;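 first of two repeat runs on a subset; 0% = infected and 100% = uninfected wells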
* marks the source's active call; other numbers are inactive results; ? = inconclusive; . = not tested or not shown.

Start of the listing, in advance (two entries):
SMILES | Arbovirus anti | Mtb growth | Mtb betalactam | YopH inh | RecA splice inh | others
COc1ccc(NC(=O)c2ccc(NS(=O)(=O)c3cccc4cccnc34)cc2)cc1 | . | . | -5 | . | -1.3
COc1ccc(/C=C/C(=O)NC(=S)N2CCN(c3ccccc3OC)CC2)cc1 | . | 5% | -4 | . | -0.3

The whole of this part, previewed entries included:
SMILES | Arbovirus anti | Mtb growth | Mtb betalactam | YopH inh | RecA splice inh | others
COc1ccc(NC(=O)c2ccc(NS(=O)(=O)c3cccc4cccnc34)cc2)cc1 | . | . | -5 | . | -1.3
COc1ccc(/C=C/C(=O)NC(=S)N2CCN(c3ccccc3OC)CC2)cc1 | . | 5% | -4 | . | -0.3
Cc1cccc(N2CCN(C(=O)Cn3nc(Cc4ccncc4)c4ccccc4c3=O)CC2)c1C | -1 | 17% | 0 | -15 | 11 | Arbovirus anti repeat=-3
O=C(COc1ccccc1[N+](=O)[O-])OCCCOC(=O)COc1ccccc1[N+](=O)[O-] | . | . | 1 | . | 11
CC(=O)c1ccn(S(=O)(=O)c2ccccc2)c1 | -4 | 5% | -4 | -2 | -0.6
Cc1nnc(Oc2ccccc2)c2ccccc12 | -2 | -10% | 6 | -19 | -0.1
Cc1cc(S(=O)(=O)NCc2ccccc2)ccc1OCC(=O)N1CCCC1 | . | . | -14 | . | 0.6
c1ccc(Cn2nnnc2C(c2ccncc2)N2CCOCC2)cc1 (stereo not given) | 2 | -6% | 0 | -42 | -0.6
COC(=O)C1CN(C(=O)C(C)Oc2cccc(C)c2C)c2ccccc2O1 (stereo not given) | . | . | -1 | . | 4.8
CCCc1cc(=O)oc2cc(C)cc(OC(C)C(=O)NCCN3CCOCC3)c12 (stereo not given) | . | . | -5 | . | -1.8
CCOc1ccc(NC(=S)NC(=O)c2cccnc2)c([N+](=O)[O-])c1 | . | . | -4 | . | -0.4
CC1CC(C)CN(C(=O)COC(=O)CNC(=O)C23CC4CC(CC(C4)C2)C3)C1 (stereo not given) | . | . | 0 | . | -0.4
O=C(NCc1cccc(Cl)c1)N1CCN(S(=O)(=O)c2ccccc2F)CC1 | . | . | 0 | . | -0.4
CC1CCN(c2ccc(NC(=S)NC(=O)c3ccc(-c4cccc([N+](=O)[O-])c4)o3)cc2)CC1 | -1 | 28% | 29 | -2 | -1.5
O=C(Nc1nnc(-c2ccc3c(c2)CCCC3)o1)C1CCCCC1 | -9 | ? | 86 | -5 | 1.0 | Arbovirus anti repeat=-15
O=C(CN1CCN(C/C=C/c2ccccc2)CC1)NCc1ccccc1 | 0 | 6% | -12 | . | -0.8
O=C(Cc1ccccc1)N(c1ccc(F)cc1)C1C=CS(=O)(=O)C1 (stereo not given) | 5 | -9% | -1 | -56 | 0.1
CC(C)(C)CN1CCNC(=O)C1CC(=O)N1CCOc2ccccc2C1 (stereo not given) | 6 | 2% | -9 | . | -4.0
O=Cc1cn(CCCOc2ccccc2)c2ccccc12 | -7 | 7% | 8 | -15 | 1.1
CN(C)C(CNC(=O)CCS(=O)(=O)c1ccccc1)c1ccccc1 (stereo not given) | . | . | -8 | . | 1.3
O=C(O)CC(NC(=O)OCc1ccccc1)c1ccccc1 (stereo not given) | 5 | -4% | -6 | -22 | -1.2 | Arbovirus anti repeat=3
CCCCCC(=O)Nc1nc(C)c(-c2csc(Nc3ccc(Cl)cc3)n2)s1 | -30 | ? | 98 | 1 | 6.2
O=[N+]([O-])c1cc(F)c(N2CCCCC2)cc1N1CCOCC1 | -1 | -8% | -3 | -27 | 3.5
CC(C)CCNC(=O)C(C)N(C(=O)c1snc(C(N)=O)c1N)c1cnc2ccccc2c1 (stereo not given) | 1 | 11% | -3 | . | 2.6
O=[N+]([O-])c1ccc([N+](=O)[O-])c(Nc2ccc(N3CCOCC3)cc2)c1 | 1 | 2% | 0 | . | -1.7
O=c1cc2c(nn1Cc1ccccc1Cl)-c1ccccc1CC2 | -9 | 20% | 1 | 9 | 3.6
CCCCNC(=S)Nc1ccc2nc3n(c(=O)c2c1)CCCCC3 | 0 | -3% | 1 | -33 | -4.8
CC(=O)N1c2ccc(N=Cc3cc(Br)cc(Br)c3O)cc2CC1C (stereo not given) | . | -6% | 4 | . | 3.7
COC(=O)c1ccc2c(c1)C(C)(C)C(/C=C/c1ccc(OC)c(OC)c1OC)=[N+]2C | -33 | -7% | -1 | 21 | 1.8
COC(=O)c1c(C)[nH]c(C)c1-c1cccc([N+](=O)[O-])c1 | -1 | -13% | -2 | . | -0.5
O=C(NC(=S)Nc1ccc2[nH]c(=O)[nH]c2c1)c1ccccc1Cl | . | . | 1 | . | 1.2
COc1ccc(OCCCC(=O)NNC(=O)CCN2CCN(c3ccccc3)CC2)cc1 | . | . | -3 | . | -0.3
N/C(=N\OC(=O)c1cccs1)c1ccccc1 | -7 | 4% | 2 | -18 | 0.0
COC(=O)CNC(=O)/C=C/c1cc(Br)ccc1OC | 9 | 5% | 2 | . | 0.3
Cc1c(C)c2c(OCC(=O)N3CCC[C@H]3C(=O)O)cc3c(c2oc1=O)CCC(C)(C)O3 | . | . | 1 | . | 2.0
Cc1cc(C)c(S(=O)(=O)Nc2cnc3ccccc3c2)c(C)c1 | . | . | 6 | . | 3.0
CCOC(=O)c1c(S(=O)(=O)NCC2CCN(Cc3cccc(F)c3)CC2)c(C)n(C)c1C | . | . | 0 | . | -2.2
C/C(=N\N1C(=O)CSC1=S)c1ccc(Br)cc1 | 14 | -10% | -2 | . | -3.1
CCC1Oc2ccccc2N(CC(=O)NCCCN2CCC(C)CC2)C1=O (stereo not given) | 5 | -5% | -1 | -25 | -3.3
CCOC(=O)N1CCN(CCC(=O)Nc2ccc(C)cc2)CC1 | 1 | -2% | 9 | 0 | -1.9
COc1ccc(NC(=O)C(NCC(C)C)c2ccccc2)cc1Cl (stereo not given) | -6 | 4% | -3 | . | 1.4
CCc1ccc(OCc2nnc(SCC(=O)N3CCN(c4ccccc4)CC3)o2)cc1 | -3 | 6% | 25 | 0 | -0.6
O=C(CN(Cc1ccccc1)C(=O)c1ccc2c(c1)OCCO2)NCc1ccc2c(c1)OCO2 | -12 | 3% | -3 | -38 | 11
COC(=O)c1sccc1NC(=O)c1ccc(OC)c(OC)c1 | 5 | 6% | 21 | 11 | .
CCN(c1ccccc1)S(=O)(=O)c1ccc(C(=O)Nc2ccc(C)cn2)cc1 | . | . | -2 | . | -0.6
O=C(O)/C=C/c1ccc(S(=O)(=O)Nc2ccc(OCc3ccccc3)cc2)cc1 | . | 4% | -4 | . | 1.9
O=C(O)CCn1cc(/C=C/C(=O)c2ccc(Cl)cc2)c(-c2ccc(Br)cc2)n1 | 46* | 11% | 43 | -16 | .
O=C(NC1(C(F)(F)F)NC(=O)N(c2ccc(F)cc2)C1=O)c1ccncc1 (stereo not given) | 13 | -9% | -19 | -2 | -3.8
COc1ccccc1C1CC2CCC(C1OC(C)=O)N2Cc1ccccc1 (stereo not given) | . | . | 8 | . | 0.7
CCOC(=O)N1CCC(NC(=O)CCC(=O)N2CC(C)Oc3ccccc32)CC1 (stereo not given) | 3 | . | -7 | 10 | -1.6
O=C(O)c1ccccc1S | 3 | . | . | -69 | .
O=C(CCCCCn1c(=O)[nH]c2ccccc2c1=O)N1CCN(Cc2ccc3c(c2)OCO3)CC1 | -2 | -12% | 6 | -54 | -2.3
CC(C)CNC(=O)COC(=O)c1cccc(S(=O)(=O)NCC(F)(F)F)c1 | . | -4% | 3 | . | -1.4
Cc1ccc(-n2c(SCC(=O)NC3CCS(=O)(=O)C3)nc3ccccc3c2=O)cc1C (stereo not given) | . | . | 2 | . | -4.7
CC1CCCN(C(=O)C(=O)c2cn(CC(=O)N3CCCCCC3)c3ccccc23)C1 (stereo not given) | . | . | 2 | . | -3.1
CC(C[N+](C)(C)C)OC(N)=O (stereo not given) | -2 | -8% | -1 | -27 | -1.3
CNC(=O)CSc1nc2c([nH]c3ccccc32)c(=O)n1CCOC | -2 | -1% | -6 | . | -0.4
O=C(Nc1cccc(-c2cnc3ccccc3n2)c1)c1ccco1 | -20 | -3% | 88 | 29 | 0.6
COCc1nnc(NS(=O)(=O)c2ccccc2)s1 | -1 | -3% | -5 | -13 | 1.3
COc1ccccc1C(=O)Nn1c(C2CCC2)nc2ccccc2c1=O | 0 | -3% | -10 | -46 | -3.9
Additional structures follow:
SMILES | Arbovirus anti | Mtb growth | Mtb betalactam | YopH inh | RecA splice inh | others
CCOC(=O)c1oc2c(c1C)C(=O)CCC2 | -8 | 4% | 5 | -17 | 1.3
COCCn1c(=O)[nH]c2cc(C(=O)Nc3ccc(OC)c(Cl)c3)ccc2c1=O | . | . | -6 | . | -0.1
COc1ccccc1OCC#CCN1CCCC(C)C1 (stereo not given) | 3 | -5% | -4 | . | -2.8
CCCNC(=O)c1ccc2c(c1)nc(C)n2-c1cccc(Cl)c1 | . | . | -2 | . | -1.7
O=C(Oc1ccc(Br)cc1C(=S)N1CCOCC1)c1ccc(F)cc1 | . | . | -5 | . | 12
COc1ccc(C(=O)/C=C/Nc2ccc(C)cn2)cc1OC | -12 | -8% | -6 | -3 | -20
O=C(NC(c1ccc(Cl)cc1)P(=O)(Oc1ccccc1)Oc1ccccc1)OCc1ccccc1 (stereo not given) | 1 | -3% | -5 | -2 | -1.9
Nc1cccc(C(=O)OCC(=O)NC2CCCc3ccccc32)c1 (stereo not given) | -4 | 7% | 1 | . | 4.5
CCCCCCNC(=O)CC(c1ccccc1)c1cc(Br)ccc1O (stereo not given) | -36 | 9% | -4 | 32 | 29
COc1ccc(C2=CSC3=NCCN23)cc1OC | . | . | -4 | . | -1.2
CC1CCCC(NC(=O)CCCn2c(=O)[nH]c3cc(Cl)ccc3c2=O)C1C (stereo not given) | 1 | -9% | -8 | -39 | 2.6
Cc1ccc(N(CN2CCCC2=O)C(=O)c2ccccc2)cc1 | -1 | 5% | -8 | . | -3.5
O=C(NC(=S)Nc1cc([N+](=O)[O-])ccc1O)c1ccc2c(c1)OCO2 | . | . | 68 | . | -0.3
Cc1cc2ncn(S(=O)(=O)c3ccc(S(=O)(=O)N4CCOCC4)cc3)c2cc1C | 7 | -7% | 0 | -64 | .
O=[N+]([O-])c1cccc2nc(-c3ccccc3)c(-c3ccccc3)nc12 | . | . | 3 | . | 6.0
COc1ccccc1CNc1ccc2c(c1)CCC2 | . | . | 97 | . | -1.5
Nc1ccc(-c2nc3cc(N)ccc3n2CCO)cc1 | . | 0% | -13 | . | -3.0
O=C(CNC(=O)c1ccc2c(c1)OCCO2)N/N=C/c1ccc(O)cc1O | -5 | 1% | 2 | -13 | -3.6
CN1CCCC1CCNc1ccc2sc3ccccc3c(=O)c2c1 (stereo not given) | . | -2% | 67 | . | -5.7
COc1ccc(C(C(=O)NC(C)(C)C)N(C(=O)CCC(=O)Nc2ccccn2)C2CCCCC2)cc1 (stereo not given) | . | . | -10 | . | 1.9
O=C(Nc1ccc2c(c1)OCO2)OCc1ccccc1 | -11 | 7% | -8 | 12 | -1.4
CCC(=NCc1ccc2c(c1)OCO2)c1c(O)n(C2CCCCC2)c(=O)[nH]c1=O | -24 | 0% | 78 | 1 | 9.6
Cc1ccc2c(C)c(C(=O)NCCN3CCCC(O)C3)oc2c1C (stereo not given) | . | . | -4 | . | 3.3
COc1ccc(NC(=O)C2(c3ccc(NC(=O)c4ccc(OC(C)=O)cc4)cc3)CCCC2)cc1 | 2 | 4% | 2 | -12 | 1.3

6 compounds picked at random from the list so far:
SMILES | Arbovirus anti | Mtb growth | Mtb betalactam | YopH inh | RecA splice inh | others
COc1ccccc1CNc1ccc2c(c1)CCC2 | . | . | 97 | . | -1.5
Nc1ccc(-c2nc3cc(N)ccc3n2CCO)cc1 | . | 0% | -13 | . | -3.0
CN1CCCC1CCNc1ccc2sc3ccccc3c(=O)c2c1 (stereo not given) | . | -2% | 67 | . | -5.7
COc1ccc(NC(=O)C2(c3ccc(NC(=O)c4ccc(OC(C)=O)cc4)cc3)CCCC2)cc1 | 2 | 4% | 2 | -12 | 1.3
COc1ccc(C(C(=O)NC(C)(C)C)N(C(=O)CCC(=O)Nc2ccccn2)C2CCCCC2)cc1 (stereo not given) | . | . | -10 | . | 1.9
CCC(=NCc1ccc2c(c1)OCO2)c1c(O)n(C2CCCCC2)c(=O)[nH]c1=O | -24 | 0% | 78 | 1 | 9.6

A portion of the library; rates above refer to the full screens.
